KAT2A inh = inhibitors of human GCN5L2 histone acetyltransferase | Q92830 | GCN5L2 HAT assay, ThioGlo1 CoA-SH fluorescence | Potency, µM (titrated, usually from 58.9 µM), without a hit: at the top dose activity change, negative = inhibition, usual class: inhibitors | actives 0.21% (n = 390,000)
Target sequence (Q92830 whole entry, looked up): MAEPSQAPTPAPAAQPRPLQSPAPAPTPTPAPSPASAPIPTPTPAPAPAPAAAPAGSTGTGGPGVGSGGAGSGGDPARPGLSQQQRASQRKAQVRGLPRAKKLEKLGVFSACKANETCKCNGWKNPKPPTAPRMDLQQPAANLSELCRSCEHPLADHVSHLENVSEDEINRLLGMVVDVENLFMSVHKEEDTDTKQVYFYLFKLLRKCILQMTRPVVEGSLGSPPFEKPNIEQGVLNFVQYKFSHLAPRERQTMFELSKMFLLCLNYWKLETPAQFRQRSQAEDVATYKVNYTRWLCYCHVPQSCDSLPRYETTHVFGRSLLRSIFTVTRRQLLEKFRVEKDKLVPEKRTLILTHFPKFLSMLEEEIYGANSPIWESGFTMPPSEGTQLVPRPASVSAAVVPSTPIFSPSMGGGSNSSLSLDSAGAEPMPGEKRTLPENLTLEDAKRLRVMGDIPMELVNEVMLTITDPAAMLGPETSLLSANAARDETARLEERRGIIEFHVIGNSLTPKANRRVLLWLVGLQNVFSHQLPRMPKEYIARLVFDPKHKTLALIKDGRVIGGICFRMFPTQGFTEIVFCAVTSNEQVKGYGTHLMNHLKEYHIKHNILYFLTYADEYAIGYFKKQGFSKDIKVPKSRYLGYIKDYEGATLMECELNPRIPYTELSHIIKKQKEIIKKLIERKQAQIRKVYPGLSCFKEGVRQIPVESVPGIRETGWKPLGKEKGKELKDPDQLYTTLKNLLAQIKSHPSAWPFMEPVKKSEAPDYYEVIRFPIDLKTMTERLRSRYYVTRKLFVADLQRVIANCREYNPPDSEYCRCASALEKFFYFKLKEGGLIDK
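Titration-based screen in which CoA formation is detected via maleimide probe ThioGlo1 (50uM) turning fluorescent on thiol reaction; substrates H3(1-25) 75uM and acetyl-CoA 70uM, GCN5L2 20nM, 20 min incubation at room temperature.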
N370S GC mod = inhibitors or activators of N370S glucocerebrosidase for Gaucher disease; AID 2101; Potency, µM (doses to about 59.4 µM), for inactives: top-dose activity change, negative = inhibition, actives largely listed as inhibitors; N370S GC spleen homogenate, 4MU-glucoside fluorescence; actives 0.092% (n = 330,000);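 further: 0% = full enzyme activity and -100% = no enzyme basal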
* marks the source's active call; other numbers are inactive results; ? = inconclusive; / = no result given; [ ] = dose if it differs, or a comment. The call rests on the fitted dose curve; in most records, active means well fitted curve in the direction sought with a large enough effect; inconclusive means small, poorly fitted or top-dose-only effect, or another doubt; inactive means no such curve, though single readings can be large; an effect the other way counts as inactive or inconclusive. Unless noted, on the % scale 0 is the no-effect control and ±100 the full control effect; potency means the concentration at half of the fitted maximal effect. A portion of the library; most or all hits stand in other tables.

| structure | KAT2A inh | N370S GC mod |
| --- | --- | --- |
| COc1cccc(-c2nnc(NC(=O)CCS(=O)(=O)c3ccc(C)cc3)o2)c1 | -2.0% | -3.0% |
| Cc1cc(C=C2C(=O)CCCC2=O)c(C)n1-c1ccccc1 | -18.6% | -4.5% |
| CCOC(=O)N1CCN(S(=O)(=O)CCNC(=O)c2ccc(F)cc2)CC1 | -4.4% | -15.1% |
| COCCNC(=O)Cn1nc(-c2ccc(Cl)cc2)c2ccccc2c1=O | 0.2% | -6.6% |
| COc1ccccc1OCC(=O)N1CCCC(Nc2ccc(C)c(C)c2)C1 (stereo not drawn) | -5.7% | 17.3% |
| N#C/C(=C\c1c(N2CCN(Cc3ccccc3)CC2)nc2ccccn2c1=O)S(=O)(=O)c1ccccc1 | -21.7% | -18.3% |
| COc1ccc(N2CCN(CCCNC(=O)C3(S(=O)(=O)c4ccc(Cl)cc4)CC3)CC2)cc1 | -3.0% | -1.6% |
| CC(C)(C)CC(=O)NCCc1csc(-c2ccccc2)n1 | -9.6% | -2.6% |
| Cc1ccc(S(=O)(=O)Oc2ccccc2N2C(=O)C3CC=CCC3C2=O)cc1 (stereo not drawn) | -15.3% | ? |
| COc1ccc(-c2nn(CCC#N)cc2C(=O)Nc2cccc(C(=O)O)c2)cc1[N+](=O)[O-] | -4.6% | 2.4% |
| O=[N+]([O-])c1ccc(Nc2ccc(N3CCOCC3)cc2)c([N+](=O)[O-])c1 | -4.7% | 12.8% |
| COC(=O)c1cc(-n2cccc2)ccc1N1CCOCC1 | 0.0% | 0.6% |
| CCOc1ccc(CC(=O)Nc2c(C(N)=O)oc3ccc(Br)cc23)cc1OCC | -2.9% | 7.1% |
| O=C(O)CSc1cccc[n+]1[O-] | / | 4.9% |
| Cc1nn(-c2ccccc2)c(C)c1C(=O)OC/C(O)=C(\C#N)c1nc2ccccc2[nH]1 | -7.8% | 5.6% |
| Cc1cc(C)n(Cc2ccc(C(=O)Nc3ccc(Br)cc3C)o2)n1 | -1.5% | 20.1% |
| COc1ccc(S(=O)(=O)N2CCCC2)cc1C(=O)N1CCCCC1 | -3.3% | -8.4% |
| C#CCOC(=O)Nc1ccc(OCC(F)(F)F)nc1 | -0.6% | 3.6% |
| CC(C)(C)c1ccc(CNC(=O)c2ccc3c(c2)NC(=O)CO3)cc1 | -5.5% | -4.8% |
| COc1ccc(-c2noc(N3CCC(C(=O)Nc4ccc(OC)cc4OC)CC3)n2)cc1 | ? | -4.6% |
| CC(C)C(C(=O)NC(C)(C)C)N(CCN1CCOCC1)C(=O)CNS(=O)(=O)c1ccccc1 (stereo not drawn) | -5.1% | -0.4% |
| CC(C)(C)OC(=O)N1CCC(c2c(C(=O)N3CCN(c4ncccn4)CC3)cnn2-c2ccc(F)cc2F)CC1 | 3.6% | / |
| COc1nc(NC(C)(C)C)nc(Oc2ccc(=O)n(C)n2)n1 | -8.0% | 1.3% |
| CC(C)COC(=O)N1CC(O)CC1C(=O)O (stereo not drawn) | -11.0% | -4.2% |
| CCCCOc1c(Cl)cc(C(=O)N2CCN(CC(=O)N3CCCC3)CC2)cc1OCC | -3.2% | -8.9% |
| Cc1ccc(NC(=O)/C=C/c2ccccc2)c(Br)c1 | -1.1% | / |
| O=C(Nc1ccccc1Br)C1CCCN1S(=O)(=O)c1cccc2nsnc12 (stereo not drawn) | -4.1% | -2.8% |
| COc1cccc(CN2CC(C(=O)NCc3cccc(Cl)c3)CCC2=O)c1 (stereo not drawn) | 2.2% | 1.7% |
| CN(C)C=NC(=O)/C(C#N)=C1\CCc2ccccc2N1 | -5.7% | -22.4% |
| O=C(CN1C(=O)c2ccccc2C1=O)OCC(=O)c1ccccc1 | -3.3% | -1.8% |

Compound profiles (already shown). Order of values: KAT2A inh | N370S GC mod
CC(C)C(C(=O)NC(C)(C)C)N(CCN1CCOCC1)C(=O)CNS(=O)(=O)c1ccccc1 (stereo not drawn) reads -5.1% | -0.4%
O=[N+]([O-])c1ccc(Nc2ccc(N3CCOCC3)cc2)c([N+](=O)[O-])c1 reads -4.7% | 12.8%

The results go on:
| structure | KAT2A inh | N370S GC mod |
| --- | --- | --- |
| CCc1ccccc1-n1nnc(-c2nc(-c3ccccc3F)no2)c1C | 15.3% | / |
| COc1ccc(-c2ccc(-c3noc(-c4ccccc4C)n3)c(OC)n2)cc1 | -2.0% | 6.4% |
| CNC(=O)c1c(NC(=O)CS(=O)(=O)c2ccc(F)cc2)sc(C)c1C | -4.7% | -0.9% |
| NC(=O)CNC(=O)C1CCN(S(=O)(=O)c2ccc(-n3cnnn3)cc2)CC1 | -1.7% | -17.7% |
| COCCCN=C1NN=C(c2cc(C)n(Cc3ccccc3Cl)c2C)CS1 | -6.1% | -15.6% |
| COc1ccc(OCC(=O)N(Cc2cccs2)C2CCS(=O)(=O)C2)cc1 (stereo not drawn) | -6.6% | 0.7% |
| O=C(N/N=C1/CCSC1)c1cc(Br)ccc1O | -2.4% | -12.2% |
| CCCc1cc(=O)[nH]c(SCC(=O)c2cc(C)n(-c3c(C)n(C)n(-c4ccccc4)c3=O)c2C)n1 | 1.5% | 1.9% |
| CCSCc1nnc(SCC(=O)Nc2nccs2)n1CC | -1.5% | 10.1% |
| O=C(CC1CCCC1)OCn1nnc2ccccc2c1=O | 1.4% | 3.1%[2.35 µM] |
| Cn1c(CSCc2ccc(Cl)cc2)nnc1SCC(=O)Nc1nccs1 | -0.2% | 15.7% |
| O=C(NC1CCCCC1)[C@H](CSCc1ccccc1)N1Cc2ccccc2C1=O | -9.4% | 10.3% |
| CCN(CC)C(CNC(=O)c1cc(=O)[nH]c2ccccc12)c1ccccc1Cl (stereo not drawn) | -5.0% | -9.3% |
| COc1cc(CNc2ccccc2)c([N+](=O)[O-])cc1OC | -3.6% | -1.8% |
| CCC(C)[C@H](NC(=O)NCCC1=CCCCC1)C(=O)O (stereo partly drawn) | -1.4% | -9.3% |
| Cc1ccc(-n2c(N)c(C(=O)NCc3ccco3)sc2=S)cc1 | 4.6% | 12.9% |
| CN1CCCc2cc(C#N)c(=O)[nH]c21 | ? | ? |
| CCCCC(=O)OCC(=O)c1ccc(OCC)cc1 | 1.4% | 11.1% |
| CC1=C(C#N)C(c2cccnc2)C2=C(CCCC2=O)N1 (stereo not drawn) | -9.2% | 22.9% |
| Cc1ccccc1OCc1nnc(SCC(=O)Nc2ccc3c(c2)oc2ccccc23)n1C | 4.2% | 3.9% |
| COc1ccc(NC(=O)Nc2cccc(Cl)c2Cl)c(OC)n1 | -7.8% | 9.5% |
| Cc1ccc(N2CC(O)Cn3c2nc2c3c(=O)[nH]c(=O)n2C)cc1 (stereo not drawn) | 1.2% | -4.6% |
| O=C(COC(=O)CCSc1ccccc1Cl)NCc1ccco1 | -4.4% | 4.9% |
| O=C(NC[C@H]1CCCCN1)c1cc(OCC(F)(F)F)ccc1OCC(F)(F)F | / | -6.2% |
| COc1cccc(CNC(=O)CSc2nnc3c(n2)[nH]c2ccc(OC)cc23)c1 | -9.9% | 8.1% |
| Cc1cccc(NC(=O)CN2C(=O)NC3(CCCCCCC3)C2=O)c1C | -3.7% | / |
| CCc1ccc([C@H]2C(C(=O)O)=C[C@@H](CC)N2S(=O)(=O)c2ccc(C)cc2)cc1 | 3.0% | / |
| CCn1cc2nc(SCC(=O)Nc3ccc(OC)c(OC)c3)n(Cc3ccc(Cl)cc3)c(=O)c2n1 | -14.6% | / |
| CCC(=O)NCCN1CCN(C(=O)CC)CC1 | -2.1% | -1.2% |
| CCN(C(C)=O)N(CC)c1nc(Cl)nc(NC(C)C)n1 | 2.3% | 7.2% |

(listing goes on)
| structure | KAT2A inh | N370S GC mod |
| --- | --- | --- |
| Cc1[nH]c(=O)[nH]c(=O)c1NC(=O)c1ccc(OC(C)C)cc1 | 0.0% | 4.1% |
| Cc1ccc2oc(=O)c3cc(C(=O)N4CCN(c5ccccc5F)CC4)sc3c2c1 | -1.4% | / |
| COc1ccc(Nc2nc(-c3ccc(OC)cc3)cs2)cc1 | -1.0% | 3.6% |
| Cc1ccc(-c2ccc(S(=O)(=O)N3CC(C)OC(C)C3)cc2)cc1 (stereo not drawn) | -2.6% | -1.1% |
| CCOC(=O)C1=C(CN2CCCCCC2)NC(=O)NC1c1ccc2c(c1)OCO2 (stereo not drawn) | -1.2% | -20.7% |
| C=C(C)c1cccc(C(C)(C)NC(=O)Nc2ccc3[nH]c(=O)[nH]c3c2)c1 | -1.1% | 10.7% |
| O=C(Nc1nc(-c2ccccn2)cs1)C12CC3CC(CC(O)(C3)C1)C2 | -8.0% | -6.1% |
| Cc1ccc(OCC(=O)Nc2ccc3oc(=O)ccc3c2)c(C)c1 | -6.5% | -0.9% |
| CCn1nc(C)c(/C=C/C(=O)Nc2ccc(C)cc2C)c1C | 3.3% | -0.2% |
| Cc1cc(N2CCCCC2)nc2c(C)cccc12 | -10.1% | 7.5% |
| COc1ccc(N(CC(=O)NCCC2=CCCCC2)S(C)(=O)=O)cc1OC | 1.6% | -2.2% |
| CCOC(=O)c1nnn(-c2ccccc2C#N)c1C | -2.3% | 6.2% |
| COC(=O)C1CC(=O)N(Cc2ccccc2)C1 (stereo not drawn) | -4.1% | -3.2% |
| C=CCN1CCCC1CNC(=O)c1cc2[nH]nnc2cc1OC (stereo not drawn) | -0.3% | 7.4% |
| Cc1ccc(N2CC(C(=O)Nc3ncc([N+](=O)[O-])s3)CC2=O)cc1 (stereo not drawn) | 13.8% | -20.9% |
| COc1ccc(NC(=O)c2ccco2)c(NC(=O)c2ccc([N+](=O)[O-])cc2)c1 | -2.1% | -0.5% |
| O=[N+]([O-])c1ccc(Sc2n[nH]c(-c3ccncc3)n2)nc1 | -8.5% | -0.8% |
| CSc1nnc(-c2cccc(NC(=O)c3ccccc3)c2)n1C | -2.8% | 2.5% |
| CN1CCCNc2nc3ccccc3nc21 | -15.6% | 3.1% |
| CC1CCCC(NC(=O)COC(=O)c2ccc(N(C)C)cc2)C1C (stereo not drawn) | -1.4% | 11.3% |
| O=C(Nc1nnc(C2CC2)s1)c1cccc(S(=O)(=O)N2CCc3ccccc32)c1 | -1.4% | 0.2% |
| CC1CC/C(=C\c2ccc3c(c2)OCO3)C(=O)/C1=C/c1ccc2c(c1)OCO2 (stereo not drawn) | -17.7% | -0.2% |
| Cc1ccc(NC(=O)CN(C)C(=O)C(C)OC(=O)c2ccccc2NCCO)cc1 (stereo not drawn) | -10.1% | ? |
| COc1ccc(OC)c(NC(=O)CN(c2ccc(OC)c(Cl)c2)S(C)(=O)=O)c1 | 1.9% | 6.6%[2.35 µM] |
| CCOC(=O)c1ccc(NC(=O)CCSCCc2ccccn2)cc1 | -1.5% | 7.4% |
| COCCNC(=O)Cn1cc2c(n1)-c1c(oc(C(=O)N3CCCC3)c1C)CC2 | 0.6% | / |
| O=C(NCCOCCn1c(=O)oc2ccccc21)Nc1ccc(Cl)cc1 | -8.5% | / |
| COC(=O)[C@@]12CCCCN1[C@H](c1ccc(-c3ccc(OC)cc3)cc1)[C@H]1C(=O)N(C)C(=O)[C@H]12 | -4.9% | -9.0% |
| COc1ccc(NC(=O)CN(C)C(=O)CSc2ccc3c(c2)OCCO3)cc1 | -0.6% | -2.4% |
| CC1CN(C(=O)c2cc3ccccc3cc2O)CC(C)O1 (stereo not drawn) | 1.6% | -14.0% |

Reprinted at random: 5 entries already listed, in no set order.
| structure | KAT2A inh | N370S GC mod |
| --- | --- | --- |
| Cc1ccc(NC(=O)CN(C)C(=O)C(C)OC(=O)c2ccccc2NCCO)cc1 (stereo not drawn) | -10.1% | ? |
| Cc1ccc2oc(=O)c3cc(C(=O)N4CCN(c5ccccc5F)CC4)sc3c2c1 | -1.4% | / |
| COc1ccc(NC(=O)CN(C)C(=O)CSc2ccc3c(c2)OCCO3)cc1 | -0.6% | -2.4% |
| COc1ccc(OC)c(NC(=O)CN(c2ccc(OC)c(Cl)c2)S(C)(=O)=O)c1 | 1.9% | 6.6%[2.35 µM] |
| Cc1ccc(N2CC(C(=O)Nc3ncc([N+](=O)[O-])s3)CC2=O)cc1 (stereo not drawn) | 13.8% | -20.9% |

More records:
| structure | KAT2A inh | N370S GC mod |
| --- | --- | --- |
| CCN(Cc1ccncc1)Cc1nc(CC2CC2)no1 | -3.3% | -6.0% |
| COc1ccc(CCC(=O)NCc2ccccc2OC)cc1 | -8.3% | -12.9% |
| Cn1ncc(Cl)c1C(=O)Nc1sc2c(c1C(N)=O)CCC2 | -5.4% | -2.8% |
| CCOC(=O)c1cc(C#N)c(SC)nc1-c1ccccc1 | 17.9% | 5.0% |
| O=C(CCn1ccnc1)Nc1nc2ccccc2[nH]1 | 3.6% | 0.1% |
| Cn1cc(S(=O)(=O)N2CCCCCC2)cc1C(=O)N1CCN(c2ccc(Cl)cc2)CC1 | 0.1% | / |
| Cc1c(C(c2ccccc2)c2c(C)n(C)n(-c3ccccc3)c2=O)c(=O)n(-c2ccccc2)n1C | -8.7% | 0.2% |
| COc1ccc(-c2cc(CCCC(=O)N3CCN(c4ccc(OC)cc4)CC3)no2)cc1 | -4.9% | 0.7% |
| COCCn1c(=NC(=O)c2sc3ccccc3c2Cl)sc2cc(S(N)(=O)=O)ccc21 | -8.4% | -0.9% |
| COc1ccc(CCNC(=O)C2(C)CCC(=O)N2CCC(C)C)cc1OC (stereo not drawn) | -5.3% | -2.5% |
| c1ccc(CSc2ccc(-c3cccnc3)nn2)nc1 | -6.6% | -2.4% |
| Cc1nnc(SCC(=O)c2c(N)n(C)c(=O)n(C)c2=O)[nH]c1=O | -3.0% | 4.1% |
| CCCOc1ccc(N2C(=O)CC(N(Cc3ccco3)C(C)=O)C2=O)cc1 (stereo not drawn) | 0.0% | 2.0% |
| COc1ccc(N2CCN(C(=O)CS(=O)Cc3nc(-c4ccc(OC)c(OC)c4)oc3C)CC2)cc1 (stereo not drawn) | -8.6% | 5.3% |
